CSC inhib – blocks cancer stem cells. cancer stem cell-like cells viability, luminescence. inhibition, % at 7.5 µM. 1.1% of 300,000 active. AID 2717;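 active = mean at 75% or more and at least half the replicates too; tested in HMLE shEcad cells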;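 note: 0% = median of negative and 100% = median of positive control wells; the first replicate is given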
Env fusion inh – HIV envelope-mediated fusion inhibition; inhibition, % at 12.3 µM; 1.1% of 360,000 active; HeLa-JRFL Env/CEM21 cell fusion, luciferase; AID 651610;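 active = mean replicate inhibition score of at least 50 and every replicate individually at or above 50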;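 note: 0% = plate neutral controls and 100% = maraviroc near 300 nM; one replicate is shown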
MT1-MMP act inh – MT1-MMP (human) activation inhibition; 0.061% of 360,000 active; HT1080 RFP-PRO-GFP cells, GFP/RFP ratio fluorescence, overnight; percent of plate control window, DMSO zero; P50281; GFP/RFP ratio change, % at 20 µM;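 active = GFP/RFP ratio change of at least 30% with cell ATP level not reduced by more than half and red fluorescence within 50% of control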; note: strong numbers were not always called active
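Assay system: RFP-PRO-GFP reporter HT1080 cells; read-out basis: GFP/RFP fluorescence ratio; benchmarks: DMSO wells and RFP-L50D-GFP cells; doses: 20 µM single dose, 1% DMSO; schedule: overnight cell settling, then overnight compound exposure, 37 °C, 5% CO2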
Yeast UUG start – modulators of start codon recognition fidelity in yeast; activity score, % at 18.7 µM; 0.13% of 350,000 active; AID 602363; S. cerevisiae UUG-firefly luciferase reporter, luminescence/redox ratio;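 active = replicate mean at a twofold rise or more, about +100% in these data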;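 note: firefly luciferase made from a UUG start codon reports start codon fidelity; reporter light over untreated wells divided by growth signal over untreated wells; some hits fall short of that in this replicate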
eIF4H inh – inhibitors of RNA binding by human eIF4H; eIF4H fluorescence polarization binding assay; Q15056; inhibition, % at 35 µM; 0.94% of 290,000 active;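 active = 50% or more with normal probe brightness, or confirmed in later tests; about a fifth of its hits are not listed in these tables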;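 note: calls also rest on retests at 20 µM and on dose response follow-up; 0% = protein and probe with vehicle and 100% = probe without protein; strong numbers were not always called active; many hits fall short of the cut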
Rce1 inh – yeast Ras-converting enzyme inhibition. AID 2563. Q03530. yeast membranes, quenched prenylated peptide cleavage fluorescence. 0.27% of 290,000 active. calls only;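 active = fall in fluorescence gain of 50% or more versus controls, with final raw signal at or below 3038400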;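 note: plate controls were neutral control wells for no effect and wells lacking membranes for full effect; tested at 10 µM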
PABP FP inh – blocks human PABP binding to poly(A) RNA. inhibition, % at 35 µM. 1% of 290,000 active. P11940. fluorescence polarization;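 active = 50% or more with normal probe brightness, or confirmed in later tests; about a fifth of its hits are not listed in these tables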;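 note: calls also rest on retests at 20 µM and on dose response follow-up; controls were probe without protein and protein plus probe with vehicle; some compounds called inactive have numbers as strong as hits; many hits fall short of the cut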
Target sequence (P11940 whole entry, looked up): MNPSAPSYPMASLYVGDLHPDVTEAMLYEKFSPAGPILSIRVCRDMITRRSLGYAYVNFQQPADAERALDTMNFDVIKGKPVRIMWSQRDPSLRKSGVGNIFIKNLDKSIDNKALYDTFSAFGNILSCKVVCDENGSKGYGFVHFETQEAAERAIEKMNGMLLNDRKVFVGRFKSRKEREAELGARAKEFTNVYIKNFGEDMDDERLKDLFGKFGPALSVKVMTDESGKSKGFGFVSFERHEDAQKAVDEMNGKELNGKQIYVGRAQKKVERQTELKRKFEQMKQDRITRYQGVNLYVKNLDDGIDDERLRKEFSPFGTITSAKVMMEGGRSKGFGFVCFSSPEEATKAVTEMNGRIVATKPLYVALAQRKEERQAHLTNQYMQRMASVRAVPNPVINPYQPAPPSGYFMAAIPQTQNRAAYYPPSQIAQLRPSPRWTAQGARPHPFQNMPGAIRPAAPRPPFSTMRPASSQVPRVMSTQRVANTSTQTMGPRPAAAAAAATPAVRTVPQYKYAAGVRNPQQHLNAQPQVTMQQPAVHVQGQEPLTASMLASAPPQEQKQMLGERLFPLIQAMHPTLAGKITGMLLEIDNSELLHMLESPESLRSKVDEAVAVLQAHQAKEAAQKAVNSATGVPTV
eIF4H inh retest – second read-out of eIF4H inh, no call of its own (marks repeat the call); inhibition, %; compound at 20 µM; confirmation average;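 mean of two retest wells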
PABP FP inh retest – second read-out of PABP FP inh, no call of its own (marks repeat the call); inhibition, %; compound at 20 µM; confirmation repeats;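 mean of two retest wells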
MT1-MMP act inh RFP – further read-out of MT1-MMP act inh, marked with its call; RFP signal change, %; measured here: RFP expression control read;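 0 = vehicle wells; hits needed this value within 50% of zero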
The depositor's hits bear a star; i = inactive; x = no result given.

SMILES	CSC inhib	Env fusion inh	MT1-MMP act inh	MT1-MMP act inh RFP	Yeast UUG start	eIF4H inh	Rce1 inh	PABP FP inh	others
CC(C)(C)OC(=O)N/N=C/c1cc(N=Nc2ccccc2)ccc1O	19	x	8	-19	x	13	i	-7
CC1CCc2nn(CC(=O)N3CCc4ccccc43)cc2C1 (stereo not given)	12	-4	-1	0	-2	-6	i	0
COc1cc(OC)c(C2N(c3ccccn3)C(=O)C3CCCN32)cc1OC (stereo not given)	-7	-76	-3	-1	-22	-2	i	-2
Cc1cccc(OCC(=O)OCC(=O)Nc2ccc(Cl)cn2)c1	1	x	-4	4	0	x	x	x
CCOc1c([N+](=O)[O-])cc2c(C)c(C(=O)N3CCN(C)CC3)oc2c1OCC	6	2	0	1	-6	-1	i	8
CCCNC(=O)C1(C)CCN(C(=O)c2cccc(OC(F)(F)F)c2)C1 (stereo not given)	x	21	1	1	5	x	x	x
O=C(NCc1nc(-c2ccccc2)no1)c1cccs1	3	x	3	3	-4	3	i	8
O=c1ncn(C2CCCCC2)c(=O)[nH]1	x	-16	1	3	-11	x	x	x
CN1CCN(NS(=O)(=O)c2ccc(Cl)cc2)CC1	x	8	2	1	-6	-6	i	0
Cc1ccc(-c2csc(C(O)c3cccc(Cl)c3)n2)cc1C (stereo not given)	x	9	3	-5	4	x	x	x
COC(=O)C1=CN(c2ccc(F)cc2)C=C(C(=O)OC)C1c1ccc(O)cc1	15	16	1	2	-7	-3	i	-2
CCN(CC(=O)Nc1cc(C)nn1-c1nc(C)cc(C)n1)Cc1ccccc1	19	12	-6	-5	-30	-4	i	-2
Cc1cccc(C(C)C)c1NC(=O)c1cccnc1	5	-19	1	3	-1	6	i	-2
Oc1cccc2c(-c3nn[nH]n3)ccnc12	-4	-9	4	1	-20	x	x	x
COc1cccc(NC(=O)c2cccc(NC(=O)c3ccco3)c2)c1	x	-44	4	-1	-9	x	x	x

Structures from the list above that have sulfur:
SMILES	CSC inhib	Env fusion inh	MT1-MMP act inh	MT1-MMP act inh RFP	Yeast UUG start	eIF4H inh	Rce1 inh	PABP FP inh	others
O=C(NCc1nc(-c2ccccc2)no1)c1cccs1	3	x	3	3	-4	3	i	8
CN1CCN(NS(=O)(=O)c2ccc(Cl)cc2)CC1	x	8	2	1	-6	-6	i	0
Cc1ccc(-c2csc(C(O)c3cccc(Cl)c3)n2)cc1C (stereo not given)	x	9	3	-5	4	x	x	x

Remaining list, next part
SMILES	CSC inhib	Env fusion inh	MT1-MMP act inh	MT1-MMP act inh RFP	Yeast UUG start	eIF4H inh	Rce1 inh	PABP FP inh	others
CNc1nc(N)c([N+](=O)[O-])c(NC2CCCCC2)n1	-16	-5	-4	1	0	-11	i	-4
Cc1noc(C)c1S(=O)(=O)N1CCCC(C(=O)NCCc2ccc(Cl)cc2)C1 (stereo not given)	x	x	-2	-7	-22	-3	i	33
COc1cccc(CNc2ccc([N+](=O)[O-])c(NCC(=O)O)n2)c1	-7	-8	-8	-3	-23	9	i	11
Cc1cccc(C)c1OCc1nnc(SCC(=O)NCCc2ccccc2)o1	-6	-36	-9	-16	-11	13	i	9
Cc1ccccc1N(CC(=O)NCC1CCCO1)C(=O)CCC(=O)Nc1nccs1 (stereo not given)	x	-11	-3	0	-10	-12	i	8
O=c1cc(CN2CCN(Cc3ccccc3)CC2)c2cc(O)ccc2o1	-6	-25	4	3	11	-1	i	1
COc1ccc(N(CC(=O)N2CCc3ccccc3C2)S(C)(=O)=O)cc1	-10	x	0	3	4	2	i	-2
O=c1oc(-c2ccc(Cl)c(Cl)c2)nn1-c1ccc(C(F)(F)F)cn1	3	7	3	1	-18	-13	i	12
COc1ccccc1NC(=O)CSc1nnc(CNC(=O)COc2ccc(Cl)cc2)o1	-19	12	2	1	-19	-2	i	-14
CCOC(=O)C1=C(c2ccccc2)O/C(=C(/C#N)C(F)(F)F)S1	56	x	x	x	x	-11	i	-8
CCC(C)(C)NC(=O)CN(C(=O)c1snc(C(N)=O)c1N)c1ccc(OC)c(OC)c1	16	x	4	4	1	-3	x	-2
O=S(=O)(NCc1ccccc1Br)c1ccccc1Br	-9	9	6	-6	-10	x	x	x
O=C(O)c1cc(S(=O)(=O)N(Cc2ccccc2)c2ccccc2)ccc1Cl	-1	10	6	4	3	2	i	18
CN1CCc2c(sc3c2c(=O)n(-c2ccccc2)c2nnc(SCc4ccc(Cl)cc4)n32)C1	-55	x	-5	-4	-5	3	i	7
COC(=O)c1sccc1NC(=O)CC1C(=O)NCCN1C(=O)Nc1cc(Cl)ccc1OC (stereo not given)	2	25	0	0	6	-2	i	-7
Cc1ccc(C(=O)CSc2nnc(-c3ccccc3)o2)cc1	12	-27	4	2	-3	-4	i	-14
COc1ccc(NCC(=O)Nc2ccccc2C#N)cc1Cl	-9	-27	-2	-4	-5	-5	i	-2
CC(C)c1nnc(SCC(=O)NCc2ccc3c(c2)OCO3)n1C	1	-36	0	8	8	-4	i	-5
O=C(OCc1cn([C@H]2CN(C(=O)C3CCCCC3)[C@@H](c3ccc(Cl)cc3)C[C@@H]2O)nn1)c1ccccc1	x	-11	0	-2	-7	x	x	x
Cc1cc(N2CCOCC2)c(F)cc1C(=O)c1ccccc1	-11	8	4	-2	2	3	i	2
O=C(CN1CCCCCC1)Nc1ccc(S(=O)(=O)N2CCOCC2)cc1	-3	-10	2	4	x	0	i	0
CCCNC(=O)C(Cc1ccc(I)cc1)NC(=O)c1ccc2ccccc2n1 (stereo not given)	5	-25	4	-5	-4	x	x	x
O=C(c1cn(Cc2ccccc2)nc1-c1ccc(Cl)cc1)N1CCN(c2ccccn2)CC1	x	-29	6	-6	6	x	x	x
COc1ccc2c(C)c(C(=O)N3CCN(Cc4ccccc4)CC3)oc2c1	x	15	-2	-5	-11	-4	i	-3
CCCc1c(O)c2ccccc2n(-c2ccccc2)c1=O	-7	x	5	6	-19	-4	i	-6
CCOc1ccc(N2CC(C(=O)NC3CCCC3)CC2=O)cc1 (stereo not given)	-23	-11	2	1	-3	1	i	5
COc1ccc(NC(=O)CCC(=O)Nc2ccc3nc(N4CCOCC4)cc(C)c3c2)c(OC)c1	-2	-23	1	-3	-4	-2	i	9
O=C(OCCN1C(=O)c2ccccc2C1=O)c1ccccc1	-3	5	3	1	x	-4	i	8
C=CCn1ncc(OC)c(Cl)c1=O	-3	x	-3	3	x	-3	i	-11
O=C(O)c1ccc(S(=O)(=O)NCC2CCCCC2)cc1	1	0	0	-3	0	-1	i	-9

5 records drawn at random from those above, as already listed:
SMILES	CSC inhib	Env fusion inh	MT1-MMP act inh	MT1-MMP act inh RFP	Yeast UUG start	eIF4H inh	Rce1 inh	PABP FP inh	others
O=C(OCc1cn([C@H]2CN(C(=O)C3CCCCC3)[C@@H](c3ccc(Cl)cc3)C[C@@H]2O)nn1)c1ccccc1	x	-11	0	-2	-7	x	x	x
COc1ccc(NC(=O)CCC(=O)Nc2ccc3nc(N4CCOCC4)cc(C)c3c2)c(OC)c1	-2	-23	1	-3	-4	-2	i	9
CCOc1ccc(N2CC(C(=O)NC3CCCC3)CC2=O)cc1 (stereo not given)	-23	-11	2	1	-3	1	i	5
CCCNC(=O)C(Cc1ccc(I)cc1)NC(=O)c1ccc2ccccc2n1 (stereo not given)	5	-25	4	-5	-4	x	x	x
COc1ccc2c(C)c(C(=O)N3CCN(Cc4ccccc4)CC3)oc2c1	x	15	-2	-5	-11	-4	i	-3

Remaining list, next part.
SMILES	CSC inhib	Env fusion inh	MT1-MMP act inh	MT1-MMP act inh RFP	Yeast UUG start	eIF4H inh	Rce1 inh	PABP FP inh	others
COc1ccc(CN2CCNC(=O)C2CC(=O)N(C)Cc2ccon2)cc1OC (stereo not given)	-10	5	8	12	x	-13	i	-8
CCCCc1ccc(NC(=O)c2cnccn2)cc1	12	-63	-1	-8	-55	4	i	3
CCOC(=O)N1CCN(C(=O)C2CCCN(c3ncnc4c3nc3n4CCCCC3)C2)CC1 (stereo not given)	-3	-28	-1	1	6	4	i	6
COc1cc(Br)c(/C=C/c2ccc3cccc(O)c3n2)cc1OC	17	7	2	1	-22	23	i	11
O=S(=O)(Cc1ccccc1)N1CCN(Cc2c(F)cccc2Cl)CC1	x	-37	-3	1	-15	x	x	x
Cc1cc2c(cc1C)CSC(c1ccccc1O)SC2	10	-39	-5	-4	-12	4	i	-10
O=[N+]([O-])c1cccc2cn[nH]c12	-12	x	-4	-6	-9	-1	i	-8
Cc1cc(/C=N/NC(=O)c2cccc(N(C)C)c2)c(C)n1-c1cc(C(=O)O)cc(C(=O)O)c1	x	-21	-1	2	x	78	i	5	eIF4H inh retest=-1;PABP FP inh retest=-3
COc1cc(C(=O)OCC(=O)Nc2ccc(C(C)=O)cc2)ccc1OCC(=O)N1CCOCC1	-7	7	-5	-3	x	8	i	19
CCOC(=O)c1c(C)oc2ccc(OCC(N)=O)cc12	-12	-131	3	1	x	4	i	7
CCOc1ncccc1C(=O)Nc1c(C)n(C)n(-c2ccccc2)c1=O	-11	-27	-1	2	-13	-14	i	4
O=C(COc1cc2oc(=O)c3c(c2cc1Cl)CCC3)N1C[C@H]2C[C@@H](C1)c1cccc(=O)n1C2	1	x	-1	1	-23	0	i	-7
OCCNc1nc(Cl)nc(NCc2ccco2)n1	0	-9	2	3	-16	8	i	11
O=C(Nc1ccccn1)c1cccc(S(=O)(=O)N2CCc3ccccc3C2)c1	-5	19	1	2	2	x	i	x
COc1cc(/C=C2\SC(=S)N(CCC(=O)Nc3ccccc3O)C2=O)cc(OC)c1OC	13	-14	24	6	-1	-11	i	1
CCC(C(=O)NCCN1CCOCC1)n1c2ccccc2c2nc(=O)cc(C)n21 (stereo not given)	-18	-3	-7	-1	-10	-7	i	5
COc1cc2c(cc1OC)C(c1cccc(Br)c1)NC(=O)C2 (stereo not given)	-11	-17	1	-1	2	-4	i	5
COc1ccc(S(=O)(=O)N2CCc3ccccc32)cc1C(=O)N(CC(C)C)C1CCS(=O)(=O)C1 (stereo not given)	9	11	4	-1	-20	x	i	x
O=C(c1ccc(-c2ccccc2)cc1)C1CCCN(C(=O)Cn2cncn2)C1 (stereo not given)	-4	15	-1	-3	x	-4	i	-6
CC1=NN(C(N)=S)C(=O)C1N=Nc1c(C)n(C)n(-c2ccccc2)c1=O (stereo not given)	-13	22	1	3	-23	x	i	x
Cn1nc(C(F)(F)F)c(C(=O)Nc2ccc(F)cc2)c1Cl	-16	1	-3	-2	x	0	i	-2
CCNC(=O)COC(=O)COc1ccc(Cl)cc1C	10	x	2	-1	-19	-4	i	1
COc1cccc(Nc2nc3ccccc3nc2NS(=O)(=O)c2cccs2)c1	50	24	-1	1	-2	2	i	12
COc1cc(-c2noc(C)c2C#CC2(O)CCCCC2)cc(OC)c1OC	8	-18	5	-3	-5	6	i	4
CC(=O)c1ccc(OCCn2cnc3ccccc32)cc1	2	-15	3	-2	x	3	i	-8
COCCN1CC(O)=C(c2nc3ccccc3c(=O)[nH]2)C1=N	x	x	9	2	-9	-7	i	-10
CCC1(c2ccc(F)cc2)NC(=O)NC1=O (stereo not given)	-22	-10	4	5	3	-9	i	12
COc1ccc(C(=O)NC2CC2)cc1OC1CCN(Cc2cc(C)cc(C)c2)CC1	-8	-12	3	1	-9	-18	i	5
CCN(CC)C(=O)C1CCCN(C/C=C/c2ccccc2)C1 (stereo not given)	-4	-11	-1	4	-20	-12	i	-1
CN(C)CCNc1ncnc2c1ncn2[C@H]1CN(Cc2cccs2)C[C@@H](CO)O1	x	18	1	5	-8	x	x	x
c1ccc(Cc2c(-c3ccco3)nc3c4ccccc4ccn23)cc1	x	66*	-8	-3	-35	x	x	x
COc1cc(CNCCNCC(C)O)ccc1OCc1ccc(Cl)nc1 (stereo not given)	6	9	-3	-1	-6	0	i	9

High-throughput results from PubChem.

This is a random part of the collection; any-hit rate near 2.9%.
